Bioassay records from PubChem.
PrP 5UTR inh: suppresses PrP 5' UTR mRNA reporter expression; AID 488862; inhibition, % (no concentration beside the values); 340,000 tested, 0.35% active; cell-based PrP 5' UTR mRNA reporter, plate reader;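 active = every replicate at 50% or more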;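 note: 0 = median of the neutral control wells; tested in H4 reporter cells; numbers are from one replicate; inactives centre near -14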
Bead autofluor: compound fluorescence in toxin protease inhibitor counterscreen. compound autofluorescence counterscreen, microsphere flow cytometry; active compounds read high. fluorescence intensity (no concentration beside the values). 360,000 tested, 3.1% active. AID 624483;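 active = at least 3 SD above the mean of all compounds, about 16000 in these data; inconclusive = too few beads counted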;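 note: 100 nL of 1 mM stock went into each well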
Sa RN4220 lethal: S. aureus RN4220 growth inhibition; inhibition, % (concentration not given with the values); AID 1259311; OD600, 16 h; 330,000 tested, 0.33% active;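 active = z-score of -3 or lower and OD600 up to 0.18 on both plates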;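 note: plate controls were untreated cells for no effect and reference antibiotic for full effect; stock transfer was 100 nL into about 80 µL; one replicate is shown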
Mtb hypoxia rep: inhibitors of hypoxia-regulated fluorescent reporter in Mycobacterium tuberculosis; M. tuberculosis hypoxia-regulated fluorescent reporter, fluorescence; fluorescence inhibition, % (test concentration not listed); 300,000 tested, 0.1% active; AID 1159583;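 active = 35 to 45% if threefold the growth effect, above 45% if 1.5-fold the growth effect; inactive = the rest, general growth blockers included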;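 note: wells of about 50 µL received 100 nL stock; 0% = vehicle wells and 100% = reference inhibitor wells; whole bacteria with a GFP reporter of the hypoxia response; strong numbers were not always called active; many hits fall short of the cut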
ugtP null kill: compounds lethal to S. aureus RN4220 ugtP deletion mutant; OD600 growth, 16 h; some inactives read as strong as hits; growth inhibition, % (concentration not given with the values); 330,000 tested, 0.54% active; AID 1259309;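 active = z-score under -3 and OD600 up to 0.15 on both plates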;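 note: plate controls were untreated wells for no effect and antibiotic for full effect; wells of about 80 µL received 100 nL stock; the first replicate is given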
BJeLR lethal: BJeLR cell viability loss | BJeLR (HRASV12) viability, CellTiter-Glo ATP luminescence, 48 h; reference of the scale not given here | 300,000 tested, 0.17% active | inhibition, % (concentration not given with the values);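 active = replicate mean above 50%; inconclusive = above 50% but judged a plate artefact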;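 note: 50 nL library stock added to about 25 µL; numbers are from one replicate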
Mtb hypoxia rep growth: also measured in Mtb hypoxia rep; calls as there; growth inhibition, %; measured here: M. tuberculosis growth (absorbance);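 0% = vehicle and 100% = reference antibiotic; read after six days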
An asterisk follows results filed as active; u = inconclusive; x = not tested or not shown.

SMILES	PrP 5UTR inh	Bead autofluor	Sa RN4220 lethal	Mtb hypoxia rep	Mtb hypoxia rep growth	ugtP null kill	BJeLR lethal
O=C(OCn1nnc2ccccc2c1=O)c1cn(-c2ccccc2)nc1-c1cccnc1	-5	9026	2.0	x	x	-11	-8
Cc1cccc2nc(Cn3c(=O)n(CCCC(=O)NCc4ccco4)c(=O)c4ccccc43)cc(=O)n12	-13	10222	3.4	8	1	-15	1
CCOC(=O)c1c(NC(=O)c2cccs2)sc2c1CC(C)(C)OC2	-15	4470	-4.2	x	x	-1	1
CC(C)Oc1ccc(Oc2ccc(C(F)(F)F)cn2)cc1	-29	2597	-1.9	x	x	14	-4
COc1cccc(CNC(=O)c2cc3oc4ccccc4c3n2C)c1OC	-13	2660	-6.3	11	5	9	18
O=C(Cc1ccc(-n2c(=O)c3ccccc3n(Cc3ccccc3Cl)c2=O)cc1)NCC1CCCO1 (configuration not stated)	-21	4586	2.7	3	-3	4	4
CCOC(=O)c1sc(N=CNc2nc(C)c(C(=O)OCC)s2)nc1C	x	x	-8.2	1	18	-4	x
CCOc1ccc(NC(=O)C2(c3ccc(OC)c(OC)c3)CCCC2)cc1	-9	2417	4.7	7	14	11	-13
COc1ccc(NC(=O)c2oc3ccccc3c2CSC)cn1	-22	3474	5.8	-7	6	3	-5
CCn1c(SCC(=O)c2ccc3ccccc3c2)nnc1-c1ccco1	-10	u	21	11	0	5	4
CC1CC(C)CN(C(=O)Cn2c(=O)oc3cc(S(=O)(=O)N4CCCC4)ccc32)C1 (configuration not stated)	-17	5762	0.0	5	-2	1	6
CC1(C)CC(=O)C2=C(C1)OC(N=CN1CCOCC1)=C(C#N)C2c1ccccc1 (configuration not stated)	x	x	5.8	0	4	0	x
CCN(CC(=O)Nc1ccccc1OC)C(=O)C1CCCC1	-2	u	1.7	-1	5	2	x
COC(=O)c1ccc(C23CC4(C2)C(CN(Cc2ccc(-c5ccccc5)cc2)C4c2ccccc2)C3c2ccc(Cl)nc2)cc1 (configuration not stated)	x	x	1.0	-5	8	2	x
CN1CCN(c2cc(N3CCN(C(=O)c4ccco4)CC3)c3c4c(onc24)-c2ccccc2C3=O)CC1	-36	4709	0.0	x	x	-8	9
COc1ccc(-n2ncc3c(N4CCN(c5cccc(C)c5C)CC4)ncnc32)cc1	-9	6527	3.0	5	2	0	11
CCCCNS(=O)(=O)c1cc(-c2nn(C)c(=O)c3ccccc23)ccc1C	-8	4155	4.5	5	9	6	3
COc1ccc(OCC(O)CNC(=O)Nc2ccc(Cl)cc2)cc1 (configuration not stated)	-14	2495	0.1	-1	6	3	2
CCc1nc(N=C(N)N)nc2ccccc12	x	x	0.6	1	2	6	8
CCOc1cc(/C=N/NC(=O)CCc2n[nH]c(=O)[nH]c2=O)ccc1O	-13	1990	x	x	x	x	-1
COC(=O)C1=CN(c2ccc(OC)cc2)C=C(C(=O)OC)C1c1cc(OC)c(OC)cc1OC	-22	5027	3.0	2	-1	13	-7
Cc1cccc(OC(C)c2ccnc3nc(/N=C/N(C)C)nn23)c1 (configuration not stated)	-13	21315*	x	x	x	x	0
COc1ccccc1N1CCN(S(=O)(=O)c2c(C)ccc3nsnc23)CC1	-13	15861	17	1	3	-14	4
CC1CCN(Cc2c(C#N)c3ccccc3n2C)CC1	3	5588	0.3	-1	11	-3	-7
O=C(c1cc([N+](=O)[O-])ccc1N1CCN(S(=O)(=O)c2ccc(Cl)c(Cl)c2)CC1)N1CCOCC1	-18	1969	6.0	-12	7	3	-10

Part of the list above, with each value named:
mol: O=C(OCn1nnc2ccccc2c1=O)c1cn(-c2ccccc2)nc1-c1cccnc1
  PrP 5UTR inh = -5	Bead autofluor = 9026	Sa RN4220 lethal = 2.0	Mtb hypoxia rep = x	Mtb hypoxia rep growth = x	ugtP null kill = -11	BJeLR lethal = -8

mol: Cc1cccc2nc(Cn3c(=O)n(CCCC(=O)NCc4ccco4)c(=O)c4ccccc43)cc(=O)n12
  PrP 5UTR inh = -13	Bead autofluor = 10222	Sa RN4220 lethal = 3.4	Mtb hypoxia rep = 8	Mtb hypoxia rep growth = 1	ugtP null kill = -15	BJeLR lethal = 1

mol: CCOC(=O)c1c(NC(=O)c2cccs2)sc2c1CC(C)(C)OC2
  PrP 5UTR inh = -15	Bead autofluor = 4470	Sa RN4220 lethal = -4.2	Mtb hypoxia rep = x	Mtb hypoxia rep growth = x	ugtP null kill = -1	BJeLR lethal = 1

mol: CC(C)Oc1ccc(Oc2ccc(C(F)(F)F)cn2)cc1
  PrP 5UTR inh = -29	Bead autofluor = 2597	Sa RN4220 lethal = -1.9	Mtb hypoxia rep = x	Mtb hypoxia rep growth = x	ugtP null kill = 14	BJeLR lethal = -4

The list goes on:
SMILES	PrP 5UTR inh	Bead autofluor	Sa RN4220 lethal	Mtb hypoxia rep	Mtb hypoxia rep growth	ugtP null kill	BJeLR lethal
COc1ccc(C2C(C#N)=C(N)Oc3c2c(-c2ccccc2)nn3-c2ccccc2)c(OC)c1OC (configuration not stated)	0	7361	5.8	13	7	13	10
O=C(COC(=O)C1CC1)NCc1ccccc1	-6	4413	1.1	-3	-1	2	x
COC(=O)c1ccc(OCC(O)CN2CCN(C(=O)c3ccco3)CC2)cc1 (configuration not stated)	-30	3932	3.0	-9	13	2	-6
Cc1ccc(Cl)c(NC(=S)N(CCCN2CCOCC2)Cc2ccco2)c1	-12	7483	2.4	9	4	11	2
COc1ccc(Cl)cc1NC(=O)CN(C)C(=O)c1ccc(-n2nc(C)cc2C)cc1	-24	8501	-3.4	3	0	12	x
CC(C)n1nnnc1SCC(=O)NC1CCCC1	-27	3548	-0.6	11	-1	-2	-3
CNC(=S)N(CCCn1ccnc1)Cc1c(F)cccc1Cl	-17	3223	2.4	8	2	0	-4
COC(=O)[C@@H](Cc1ccccc1)NC(=O)Cn1cnc2c(SC)nc(N)nc21	-18	3555	2.3	-10	-4	2	x
O=C(CSc1nc(=O)n(CCCN2CCOCC2)c2c1CCC2)Nc1ccc([N+](=O)[O-])cc1	3	6046	1.3	8	15	-5	16
COc1cc2c(cc1OC)/C(=C/C(=O)c1cccc([N+](=O)[O-])c1)NCC2	-1	3726	3.0	-6	10	-4	0
CN(C)c1ccc(C(CNC(=O)c2ccccc2F)c2c[nH]c3ccccc23)cc1 (configuration not stated)	-28	3268	2.5	5	4	-1	-7
COc1ccc(-c2csc(NC(=O)c3ccc(OCC(=O)N4CCOCC4)c(OC)c3)n2)cc1	-1	2595	17	9	7	2	0
C=CCNc1oc(-c2cccs2)nc1S(=O)(=O)c1ccccc1	-26	4007	8.3	15	5	3	-29
Cc1ccc(NC(=O)c2ccc(Cl)c(S(=O)(=O)N3CCc4ccccc43)c2)nc1	-14	u	1.4	1	3	-12	x
CN(C)c1nc(NCc2ccccc2)nc(SCC(N)=O)n1	-55	3743	0.5	14	5	-1	2
CCCCCCC(=O)N1C/C=C\C(c2ccc(OC)cc2)N(Cc2ccc(F)cc2)C(=O)C1 (configuration not stated)	-13	3517	x	x	x	x	2
Cc1cccnc1NC(=O)CNC(=O)c1sc2ccccc2c1Cl	-19	5568	8.1	4	8	10	x
CCOc1ccc(N/C(C)=C/C(=O)c2ccc(C)o2)cc1	-47	9417	4.2	4	10	10	2
O=C(/C=C/c1ccccc1)NCC(=O)NN=Cc1cccnc1	x	x	0.1	10	3	5	x
Cc1ccc(NC(=O)CN(C)C(=O)COC(=O)[C@@H](NC(=O)c2ccccc2F)C(C)C)cc1	-13	4862	2.8	3	7	5	x
CC1CCCN(C(=O)CCc2nnc(-c3ccc4c(c3)OCO4)o2)C1 (configuration not stated)	-22	5376	2.0	7	0	3	-8
O=C(O)c1ccc(OCCCCCCOC2CCCCO2)cc1 (configuration not stated)	-6	3007	2.1	-6	-4	12	-3
CCC(=O)Nc1cccc(NC(=S)NC(=O)c2ccccc2)c1	-60	2412	4.4	-1	2	24	-9
Cn1c(=O)c2c(nc(N3CCN(c4ccc([N+](=O)[O-])cc4)CC3)n2C)n(C)c1=O	x	5895	4.7	4	6	2	-9
O=[N+]([O-])c1ccc(N2CCN(S(=O)(=O)c3ccccc3)CC2)cc1N1CCc2ccccc2C1	-33	2581	5.3	7	-4	9	4
Continued.
SMILES	PrP 5UTR inh	Bead autofluor	Sa RN4220 lethal	Mtb hypoxia rep	Mtb hypoxia rep growth	ugtP null kill	BJeLR lethal
CCCC1CC(C(=O)NC(C(C)Cl)C2OC(SC)C(O)C(O)C2O)N(C)C1 (configuration not stated)	-18	5661	100*	44*	15*	100*	-3
COc1cc(CNS(=O)(=O)c2ccc3c(c2)CC(C)N3C(C)=O)cc(OC)c1OC (configuration not stated)	3	5569	3.0	2	2	0	-7
O=C(Cc1ccc([N+](=O)[O-])cc1)Nc1ccc2c(c1)C(=O)NC2=O	-22	3176	1.3	10	1	12	1
CCOC(=O)N1CCC(N2C(=O)c3ccc(C(=O)O)cc3C2=O)CC1	-15	3385	-1.8	x	x	10	-6
CS(=O)(=O)c1ccc(C(=O)OCC(=O)Nc2cccc(S(=O)(=O)N3CCCC3)c2)cc1	-18	7320	4.2	9	-9	-3	18
O=C(OCC1CC(c2ccccc2)=NO1)c1ccc(Cl)cc1 (configuration not stated)	-11	7153	3.7	10	4	6	-3
O=C(O)c1n[nH]c2c1CCCCC2	-15	8736	2.2	7	7	2	2
Nc1nc2n(n1)C(c1cccc(Br)c1)CC(c1ccccc1)N2 (configuration not stated)	10	4430	4.5	x	x	-7	-4
CC(=O)NC1CC2CCCC(C1)N2S(=O)(=O)c1ccccc1 (configuration not stated)	-5	3648	2.5	9	5	1	7
COc1ccc(NC(=O)N2CCC(C(=O)c3ccc4c(c3)OCCO4)CC2)cc1	-11	4364	1.4	-1	1	11	1
COc1cc(C(=O)Nc2cccc(S(=O)(=O)N3CCCC3)c2)c([N+](=O)[O-])cc1OC	-16	5712	0.9	-2	0	2	-6
CC(C)CCOC(=O)C1[C@H]2C(=O)N(Cc3cccs3)C[C@]23C=C[C@H]1O3 (some centres not stated)	-24	2383	x	x	x	x	-1
CC1CC2(C)Oc3ccccc3CC2C(C)C1CNCCCN(C)C (configuration not stated)	4	2150	-0.9	23	9	-13	12
CCN1CCN(CCCN(Cc2ccco2)C(=S)Nc2ccccc2Cl)CC1	-7	3891	0.4	2	0	11	15
O=C(CS(=O)c1ccc(F)cc1)N1CCOCC1 (configuration not stated)	-3	3962	2.9	14	-2	0	2
Cc1nn(-c2ccccc2)c(C)c1NC(=O)COC(=O)Cc1cccc(C(F)(F)F)c1	-16	u	4.2	2	-6	2	-11
O=C(CCCOc1ccccc1)Nc1cccc(S(=O)(=O)N2CCCCC2)c1	-37	8110	2.6	-3	0	4	x
COc1ccc(/C=N/Nc2ccc(C(=O)O)cc2)cc1OC	-116	5282	x	x	x	x	-10
NC(=O)C(=O)NN=C1CCC(c2ccccc2)CC1 (configuration not stated)	-19	2557	5.3	15	4	17	1
COc1ccc2[nH]cc(C(=O)CCl)c2c1	22	4888	14	20	15	8	46
CCn1c(SCC(=O)NCC2CCCO2)nnc1-c1c[nH]c2ccccc12 (configuration not stated)	-7	3296	3.4	5	5	-8	-7
O=C(CSc1nc(-c2ccccc2)c(-c2ccccc2)[nH]1)NCC1CCCO1 (configuration not stated)	-17	3253	2.4	-1	-3	4	0
CC(C)N1CCC(N2CCN(Cc3cccnc3)CC2CCO)CC1 (configuration not stated)	-8	4428	3.0	-4	-5	15	11
CCOC(=O)N1CCN(C2CCCN(C(=O)c3ccccc3SC)C2)CC1 (configuration not stated)	-12	5683	4.7	-3	0	6	-1
Cc1csc(SCC(=O)NC2CCCC2)n1	-8	3550	7.2	6	1	5	x
C=CCn1c(O)c(C(CC)=NC(C)c2ccccc2)c(=O)[nH]c1=O (configuration not stated)	-15	9563	-0.1	7	4	-4	-3
O=C(CSc1n[nH]c(-c2ccc(Br)cc2)n1)N1CCOCC1	3	2882	-0.6	4	2	6	x
COc1ccccc1NC(=O)c1cnc2n(c1=O)CCS2	-26	3456	-1.2	x	x	6	1
COc1c(C)cc(C(=O)C2CCCN(Cc3cnc(C)s3)C2)cc1C (configuration not stated)	-31	2134	0.6	15	4	5	4
S=C(NCCCN1CCOCC1)Nc1cccc(-c2nnc3n2CCCCC3)c1	-14	3444	2.5	1	7	5	-2
